# Screening data: PubChem BioAssay, National Center for Advancing Translational Sciences (NCATS)
# Pol III holo inh – inhibitors of bacterial DNA polymerase III holoenzyme | reconstituted DNA polymerase III holoenzyme replication, biochemical | Potency, µM (series often up to 57.1 µM), inactives show at the highest dose activity change, negative = inhibition | actives 0.25% (n = 71,000); also: potency is read from the fitted curve at half-maximal effect; % is scaled to controls: 0 for no effect and ±100 for the full control effect
#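 Reconstituted *E. coli* holoenzyme (0.35 nM Pol III, 1 nM beta, 154 nM SSB, 2 nM primase) was preincubated with compound for 15 min at RT. Synthesis on 1.4 nM ssM13Gori ran 35 min, then was stopped with PicoGreen/EDTA and read as dsDNA fluorescence.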
# Rhodamine fluor – compound fluoresces in the rhodamine spectral region; Rhodamine-region fluorescence, 547/598 nm, Tris buffer; stronger effect = higher value; max dye-equivalent concentration, M; actives 0.05% (n = 59,000); AID 594; in the data active = max dye-equivalent concentration above about 11 nM; inconclusive = between about 1.1 nM and that limit
#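 Read-out is relative fluorescence at 547 nm excitation and 598 nm emission, expressed as dye-equivalent concentration using rhodamine standards on every plate. Each compound was profiled across a concentration series after 15 min in 100 mM Tris, pH 8.0.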
# 15-hLO inh – blocks human 15-lipoxygenase activity | purified 15hLO-1, xylenol orange hydroperoxide absorbance | P16050 | AID 887 | actives 1.4% (n = 74,000) | Potency, µM (series often up to 57.1 µM), for the others: top-dose activity change, negative = inhibition, hits mostly inhibitors; also: potency is read from the fitted curve at half-maximal effect; % is scaled to controls: 0 for no effect and ±100 for the full control effect; nearly all actives have a fitted effect of over 55% in size
#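 40 nM 15hLO-1 + cpd, 15 min RT; start w/ 50 uM AA (final), 6 min RT; stop/detect w/ 200 uM XO + 300 uM Fe(II) in 50 mM H2SO4, 30 min; A573/A405. Buffer 25 mM Hepes pH 7.5, 0.01% Triton X-100. No-enzyme wells as negative control.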
# BRCT PPI red – BRCT-phosphoprotein interaction inhibition (red fluorophore) | BRCT-phosphopeptide binding, red fluorescence polarization | Potency, µM (titrated, usually from 76.9 µM), for inactives: at the highest dose activity change, negative = inhibition, most hits filed as inhibitors | actives 0.03% (n = 75,000) | AID 892; also: % is scaled to controls: 0 for no effect and ±100 for the full control effect
#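 Rhodamine-labelled pBACH1 10-mer (100 nM) bound to BRCT domain (100 nM) at pH 7.3; compounds incubated 12 min room temperature, polarization read. Free peptide defines full inhibition; unlabelled decapeptide titrated as control.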
# BRCT PPI green – blocks human BRCA1 BRCT binding to phosphopeptide, green readout; P38398; BRCA1 BRCT-phosphopeptide binding, green fluorescence polarization; Potency, µM (series often up to 76.9 µM), inactives show at the highest dose activity change, negative = inhibition, most hits filed as inhibitors; actives 0.05% (n = 75,000); AID 875;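 also: potency is read from the fitted curve at half-maximal effect; plate controls were peptide without protein for full effect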
#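 Fluorescence polarization: His-tagged BRCT (~35 kDa BRCA1 C-terminus, 250 nM) bound to 100 nM fluorescein-labeled phosphorylated 10-aa BACH1 peptide, pH 7.3 phosphate buffer with DTT and Tween 20. Compounds incubated 12 min at room temperature; inhibition read as lowered polarization.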
# Casp7 inh – blocks human caspase-7 allosterically or competitively | recombinant caspase-7, Ac-DEVD-AFC fluorescence rate | Potency, µM (titrated, usually from 57.5 µM), without a hit: at the top dose activity change, negative = inhibition, most hits filed as inhibitors | actives 0.02% (n = 75,000) | AID 889; active = well fitted inhibition curve with a large enough effect in the main read-out, with a control signal flat, not every such curve was filed as active; inconclusive = small, poorly fitted or top-dose-only effect, or a change in a side signal; also: potency is read from the fitted curve at half-maximal effect; % of control where 0% means no effect
# Tau fil binding – tau filament binding. AID 596. recombinant tau filaments, thioflavin S fluorescence, 15 h; filaments grown with octadecylsulfate alongside compound. Potency, µM (titrated, usually from 57.1 µM), for inactives: at the top dose activity change, negative = inhibition. actives 2% (n = 71,000). P10636;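 also: potency is read from the fitted curve at half-maximal effect; % is scaled to controls: 0 for no effect and ±100 for the full control effect; actives lower thioflavin S fluorescence by blocking filaments or displacing dye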
#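 Thioflavine S fluorescence (ex 450, em 510 nm) reports filaments formed from 1 uM human tau plus 30 uM ODS over 15 h at 37 C (10 mM HEPES pH 7.4, 100 mM NaCl, 5 mM DTT); compounds displacing dye or blocking filaments lower signal.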
# USP2a inh – USP2a (human) protease inhibition; O75604; USP2a enzymatic assay, qHTS inhibition; Potency, µM (top dose mostly 38.3 µM), inactives show top-dose activity change, negative = inhibition, hits mostly inhibitors; actives 0.1% (n = 60,000); AID 927;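 also: potency is read from the fitted curve at half-maximal effect; nearly all actives have a fitted effect of over 60% in size; plate controls were DMSO for no effect and NEM full inhibition control for full effect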
#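 USP2 core (20nM final) preincubated 30 min RT with compound, then Ub-PLA2 20nM and NBD C6-HPC 20uM final added; buffer 20mM Tris-HCl pH 8.0, 2mM CaCl2. Fluorescence Ex 460/Em 535 read at 0 and 2.5 h; normalized to NEM.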
# HADH2 inhib – HADH2 (human) dehydrogenase inhibition. Q99714. recombinant HADH2, NADH fluorescence, beta-hydroxybutyryl-CoA. Potency, µM (doses to about 57.1 µM), without a hit: at the top dose activity change, negative = inhibition, usual class: inhibitors. actives 3.4% (n = 73,000); also: potency is read from the fitted curve at half-maximal effect; % is scaled to controls: 0 for no effect and ±100 for the full control effect; nearly all actives have a fitted effect of over 60% in size; many of its hits are not listed in these tables
#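 20 nM HADH2 + cpd, 15 min RT; add 1 mM NAD+/90 uM beta-hydroxybutyryl-CoA; kinetic fluorescence 360/450 nm, 4 min. Tris-HCl pH 9.0, 0.01% Tween-20.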
# Caspase-1 inhib – blocks human caspase-1 allosterically or competitively | Caspase-1 enzyme, Ac-WEHD-AFC fluorogenic rate | actives 0.03% (n = 75,000) | Potency, µM (highest dose often 57.5 µM), for inactives: at the highest dose activity change, negative = inhibition, actives largely listed as inhibitors | P29466;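 also: potency is read from the fitted curve at half-maximal effect; plate controls were vehicle for no effect and no substrate for full effect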
# Active calls of the source: *; i = inactive; ? = inconclusive; · = not tested or not shown; & = joins results of further samples; [ ] = another dose, or the depositor's remark. Unless noted, calls follow the shape of the dose curve; as a rule, active = well fitted curve in the direction sought with a large enough effect; inconclusive = small, poorly fitted or top-dose-only effect, or another doubt; inactive = no such curve, though single readings can be large; an effect the other way counts as inactive or inconclusive.
SMILES,Pol III holo inh,Rhodamine fluor,15-hLO inh,BRCT PPI red,BRCT PPI green,Casp7 inh,Tau fil binding,USP2a inh,HADH2 inhib,Caspase-1 inhib
S=c1[nH]nc(-c2ccc3ccccc3n2)o1,-10%,i,3%,0.2%,-2.4%,-1%,-2%,3%,-17%,-3%
Cc1ccc(C(=O)Cn2c(NCCO)nc3ccccc32)cc1,-4%,i,10%,0.6%,1.0%,0%,6%,8%,4%,0%
CCCc1ncc(C[n+]2ccccc2C)c(N)n1,-4%[25.6 µM],i,2%,-1.5%,0.1%[3.08 µM],-12%,-7%[25.6 µM],43%[activator],-9%[25.6 µM],?
CC(=O)N1CCc2cc(C(=O)CN3CCCN(Cc4ccc(F)cc4)C3)ccc21,-4%,·,-5%,-1.2%,-0.7%,-3%,-13%,·,-6%,-4%
CCCC(c1nnnn1CC1CCCO1)N1CCN(c2cc(Cl)ccc2C)CC1 (stereo not drawn),1%,i,-9%,1.3%,-0.6%,-1%,5%,-5%,-9%,-4%
CC(=O)NS(=O)(=O)c1ccc(N)cc1,-1%,i,2%,1.9%,-1.5%[3.08 µM],3%,19%,1%,0%,3%
CCOC(=O)c1c(C2CC2)csc1NC(=O)CSCc1c(C)noc1C,-5%,i,-14%,-0.6%,-2.3%,-3%,2%,?,-23%,-1%
C#CCN(C)CCCOc1ccc(Cl)cc1Cl,10%[25.6 µM],i,7%[25.6 µM],-1.9%[34.4 µM],-0.9%[34.4 µM],2%[25.7 µM],7%[25.6 µM],4%[17.1 µM],-3%[25.6 µM],-2%[25.7 µM]
Nc1c(C(O)(C(F)(F)F)C(F)(F)F)ccc2ccccc12,-5%,i,-2%,0.0%,-0.8%,-1%,-23%,-7%,?,-5%
CCCCC(c1nnnn1CC1CCCO1)N1CCN(c2cc(Cl)ccc2C)CC1 (stereo not drawn),1%,i,-7%,-1.3%,1.1%,-2%,0%,?,2%,-2%
CCCCC1C(=O)N(c2ccccc2)N(c2ccc(O)cc2)C1=O (stereo not drawn),·,·,-10%,0.7%,-0.3%[3.08 µM],-1%,·,4%,·,0%
COc1ccc(/C=C/c2cc(OC)cc(=O)o2)cc1,-8%,·,-2%,0.9%,-1.6%,?,67%,·,-7%,?
Cc1[nH]c(=O)[nH]c(=O)c1S(=O)(=O)NCCOC12CC3CC(CC(C3)C1)C2,-2%,i,0%,-2.5%,0.6%,-1%,-2%,-1%,1%,-1%
CCOC(=O)c1ccc(NC(=O)c2ccc(C)c(S(=O)(=O)N3CCOCC3)c2)cc1,4%[11.4 µM],·,-17%[11.4 µM],-2.1%,-0.7%,-1%,26%[11.4 µM],38%[activator][7.66 µM],-7%[11.4 µM],-3%
COc1ccc(-c2nsc3c(N4CCN(S(=O)(=O)c5ccccc5)CC4)ncnc23)cc1,-5%,i,6%,1.1%,-1.5%,1%,-1%,-2%,-15%,1%
COc1ccc(C2C3=C(Nc4ncnn42)c2ccccc2CC3)cc1OC (stereo not drawn),-1%,i,-3%,1.3%,1.6%,-3%,-4%,33%[activator],?,-2%
CCN(CC)CCNc1ccc(CO)c2sc3ccccc3c(=O)c12,?,i,-3%,0.9%,-1.9%[3.08 µM],-1%,4µM*,6%,-4%[25.6 µM],-3%
CN(C(=O)CN(CCO)CC(=O)N(C)C(C)(C)Cc1ccccc1)C(C)(C)Cc1ccccc1,-7%[25.6 µM],i,16%,0.0%,-3.4%[3.08 µM],0%,-11%[25.6 µM],12%,-2%[25.6 µM],3%
O=C(Nc1nc(-c2cccs2)cs1)c1ccc(Cl)s1,0%,·,?,-3.5%,1.3%,-15%,67%,·,1%,-11%
CN(C)CCCOC1C(C(O)CO)OC2OC(C)(C)O[C@@H]21 (stereo partly drawn),·,·,0%,0.2%,-2.7%[3.08 µM],1%,·,-13%,·,-1%
O=C(CCN1C(=O)C2(OCCO2)c2ccccc21)c1ccccc1,-3%,i,6%,0.2%,-1.8%,1%,-3%,0%,1%,0%
CCN(CC)CCN1C(=O)Cn2c(C)c(C)c3cccc1c32,-1%,i,15%,-1.4%,-1.5%,-1%,12%,6%,29%,1%
O=C(O)c1ccncc1.O=C(O)c1ccncc1.[NH2-].[NH2-].[Pt],-15%[11.4 µM],i,8%[11.4 µM],-0.5%[15.4 µM],0.0%[15.4 µM],-2%[11.5 µM],-2%[11.4 µM],·,-1%[11.4 µM],2%[11.5 µM]
O=C(O)/C=C/c1ccc(/C=C/C(=O)O)cc1,-2%,·,-7%,-1.4%,-1.8%,1%,2%,·,-5%,0%
O=C(CC1=NC2(CCCC2)Cc2ccccc21)N1CCOCC1,-2%,i,-10%,0.2%,-3.4%,-5%,2%,11%,1%,-1%
FC(F)(F)c1ccccc1-n1ccnc1,-2%&-7%,i,-18%,1.7%,-1.2%,2%,?,-3%,6%&-19%,-1%
N#Cc1ccccc1OCC(=O)OCC(=O)c1ccc2c(c1)NC(=O)CO2,0%,i,?,0.9%,-1.6%,·,-14%,-9%,7%,0%
Cc1ccc(SCc2cn3c(C)csc3n2)cc1,-7%,i,-6%,-1.7%,-2.1%,-3%,7%,2%,6%,0%
Cc1cc(N2CCOCC2)n2nc(-c3cccc(F)c3)cc2n1,-12%,i,-8%,0.5%,-0.5%,-6%,6%,5%,?,-6%
COc1ccccc1N1CCN(CCN(C(=O)C2CCCCC2)c2ccccn2)CC1,-8%,i,7%,1.3%,-2.8%,0%,-2%,2%,0%,1%
Cc1ccc(C(C(=O)NC2CCCCC2)N(Cc2cccnc2)C(=O)C2COc3ccccc3O2)o1 (stereo not drawn),-2%,i,4%,-3.9%,1.3%,-1%,16%,23%,2%,-3%
CCC(c1nnnn1C(C)(C)C)N1CCN(C2CCCC2)CC1 (stereo not drawn),-6%,i,4%,-0.2%,0.1%,0%,-1%,3%,8%,2%
COc1[nH]c2ccc(F)cc2c1C(=O)OCC1CCN(CCNS(C)(=O)=O)CC1,-4%&-4%,i,-8%[25.6 µM],0.3%&-1.2%,-0.5%&-3.2%,-2%&2%,?,7%,10%&9%,-1%&2%
Oc1c(Cl)ccc(Cl)c1Cl,-4%,·,-2%,-0.1%,-0.5%,3%,17%,·,-25%,-2%
CCOCCOC(=O)C1=C(C)N(C)C(=O)NC1c1ccccc1F (stereo not drawn),5%,i,14%,0.2%,-2.1%,-1%,1%,5%,7%,5%
c1ccc2[nH]cnc2c1,-8%,·,0%,-0.1%,-2.4%,2%,-4%,·,-20%,-1%
C[N+](C)(C)CCCCCC[N+](C)(C)C,-2%[25.6 µM],i,-6%,-0.2%,-2.6%[3.08 µM],-1%,7%[25.6 µM],3%,5%[25.6 µM],3%
CC(=O)OC1C[C@]2(C)[C@@H](CC(O)C3[C@]4(C)CCC(O)C(C)[C@@H]4CC[C@]32C)/C1=C(/CCC=C(C)C)C(=O)O (stereo partly drawn),·,·,3%,-0.3%,-0.2%[3.08 µM],-4%,·,17%,·,6%
NC1=NC(c2ccc(Br)cc2)n2c(nc3ccccc32)N1 (stereo not drawn),-2%,i,1%,-1.2%,-0.6%,6%,12%,7%,8%,0%
CNc1ccccc1,0%,·,-2%,0.1%,2.0%,1%,-6%,·,-5%,2%
O=C(Cn1c(NCCO)nc2ccccc21)c1ccc(Cl)cc1,-2%,i,8%,0.7%,0.7%,-1%,-14%,80%[activator],1%,0%
Cc1cc(CC(=O)O)n(C)c1C(=O)c1ccc(Cl)cc1,-6%,i,6%,0.0%,-0.5%[3.08 µM],-1%,0%,-10%,-4%,1%
O=C(O)c1ccc([N+](=O)[O-])cc1,-2%,·,5%,0.9%,-0.4%,-1%,8%,·,1%,0%
O=C(O)CCC(=O)Nc1ccc(S(=O)(=O)Nc2nccs2)cc1,3%[25.6 µM],i,0%,0.1%,-0.6%[3.08 µM],-1%,5%[25.6 µM],-14%,0%[25.6 µM],1%
CCOC(=O)C1CCN(C(=O)CN(c2ccc(OC)c(OC)c2)S(=O)(=O)c2ccccc2)CC1,4%,·,-4%,0.9%,0.6%,1%,4%,13%,-8%,-2%
C[C@@H](c1ccccc1)N1C(=O)[C@H]2[C@H]3[C@H](O)[C@H](O)C/C(=N/NC(=O)OCc4ccccc4)[C@@H]3CC[C@@H]2C1=O,·,·,3%[11.4 µM],0.9%[15.4 µM],-1.1%[15.4 µM],0%[11.5 µM],·,·,5%[11.4 µM],0%[11.5 µM]
C[N+]1(C)CCCC(OC(=O)C(O)(c2ccccc2)c2ccccc2)C1 (stereo not drawn),·,·,-4%,0.2%,0.3%[3.08 µM],0%,·,-11%,·,0%
CCCS(=O)(=O)N1CCC(C(=O)NCCN(CC)c2ccccc2)CC1,-5%,i,2%,0.2%,-0.9%,-1%,-13%,-4%,0%,-1%
CCCCCCCC(=O)O,-5%&2%,·,-1%&-1%,0.5%&1.8%,-0.6%&-1.5%,1%&1%,-8%&0%,·,-2%&1%,-2%&-1%

# This is a subset (hit frequency here may not be typical).
